# RE007 growth inh: less growth of the S. pombe RE007 Vpr strain | S. pombe RE007 Vpr strain, BacTiter-Glo ATP luminescence, 24 h; control for the full effect not named in the record | Potency, µM (titrated, usually from 92.2 µM), without a hit: top-dose activity change, negative = less growth | 360,000 compounds, 0.21% hits; active = well fitted falling curve with a large enough effect; inconclusive = small, poorly fitted or top-dose-only effect; inactive = no such curve, though single readings can be large or run the other way;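 further: on the % scale 0 is the no-effect control and ±100 the full control effect; nearly all actives have a fitted effect of over 50% in size; the assay follows cell death caused by Vpr and the record does not say whether a fall means rescue or toxicity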
#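 Fission yeast RE007 carrying one integrated HIV-1 vpr copy, seeded at OD 0.01 in PMG+AL medium with 23 nL pinned compound. Grown 24 h at 30 degrees; viability read by BacTiter-Glo luminescence after 5 min.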
# Cruzain Triton: inhibitors of Trypanosoma cruzi cruzain with detergent; purified cruzain, Z-FR-AMC fluorescence, 0.01% Triton; 200,000 compounds, 0.43% hits; Potency, µM, for inactives: max response, negative = inhibition, hits mostly inhibitors; AID 1478; P25779; active means well fitted curve in the direction sought with a large enough effect; inconclusive means small, poorly fitted or top-dose-only effect, or another doubt; inactive means no such curve, though single readings can be large; an effect the other way counts as inactive or inconclusive;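 further: plate controls were neutral wells for no effect and buffer without enzyme for full effect; nearly all actives have a fitted effect of over 40% in size; top concentration of the series not given in the record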
# Target sequence (P25779 123-467 limits assumed): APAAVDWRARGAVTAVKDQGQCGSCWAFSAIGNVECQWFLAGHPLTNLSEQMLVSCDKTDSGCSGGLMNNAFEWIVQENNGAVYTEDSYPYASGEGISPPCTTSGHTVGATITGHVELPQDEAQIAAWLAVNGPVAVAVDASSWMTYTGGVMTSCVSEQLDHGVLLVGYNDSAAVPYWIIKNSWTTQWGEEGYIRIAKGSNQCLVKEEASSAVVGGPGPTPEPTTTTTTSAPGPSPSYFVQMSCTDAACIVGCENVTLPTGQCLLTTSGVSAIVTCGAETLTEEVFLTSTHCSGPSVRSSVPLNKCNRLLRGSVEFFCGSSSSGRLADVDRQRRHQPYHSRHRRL
#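 Cruzain (1.5 nM) preincubated 15 min at RT with compound in 100 mM sodium acetate pH 5.5, 5 mM DTT, 0.01% Triton X-100. Reaction started with 2 uM Z-FR-AMC; AMC fluorescence (ex 360/em 450 nm) change over 60 s gave rate.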
# SARS PLpro yeast: inhibitors of SARS-CoV papain-like protease in yeast | S. cerevisiae expressing SARS-CoV PLpro, growth rescue; control for the full effect not named in the record | Potency, µM (highest dose often 32.9 µM), for inactives: at the highest dose activity, positive = growth rescue | 330,000 compounds, 0.19% hits | AID 485353; further: 0% is about no effect; nearly all actives have a fitted effect of over 55% in size; growth read by luminescence after 48 h
# Cruzain noTriton: cruzain (T. cruzi) inhibition without detergent | purified cruzain, Z-FR-AMC fluorescence, no detergent | Potency, µM, without a hit: max response, negative = inhibition, hits mostly inhibitors | 200,000 compounds, 2.3% hits; active means well fitted curve in the direction sought with a large enough effect; inconclusive means small, poorly fitted or top-dose-only effect, or another doubt; inactive means no such curve, though single readings can be large; an effect the other way counts as inactive or inconclusive;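 further: plate controls were enzyme without inhibitor for no effect and buffer without enzyme for full effect; nearly all actives have a fitted effect of over 40% in size; top concentration of the series not given in the record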
#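 Detergent-free condition (0.00005% Triton X-100) in acetate buffer pH 5.5 with DTT. 1.5 nM enzyme and compound were pre-mixed 15 min, then 2 uM Z-FR-AMC substrate added; reaction progress from fluorescence change between first and third reads (60 s).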
# Lassa entry inh: Lassa virus entry inhibition; Lassa virus pseudotype entry inhibition, cell reporter; control for the full effect not named in the record; Potency, µM (highest dose often 37.9 µM), inactives show at the highest dose activity change, negative = inhibition, most hits filed as inhibitors; 300,000 compounds, 1.2% hits; AID 540256; active means well fitted inhibition curve with a large enough effect; inconclusive means small, poorly fitted or top-dose-only effect, or effect the other way; inactive means flat fitted curve, though single readings scatter; tested in HEK293 cells; further: on the % scale 0 is the no-effect control and ±100 the full control effect; nearly all actives have a fitted effect of over 50% in size; luciferase read-out
# NS1 inh: blocks influenza NS1 protein function; S. cerevisiae slowed by influenza A NS1, growth recovery by OD600; Potency, µM (top dose mostly 46.1 µM), without a hit: top-dose activity, positive = more growth; 270,000 compounds, 0.4% hits; further: actives are rising curves; nearly all actives have a fitted effect of over 50% in size
#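 A cell-based growth assay was used: compounds that relieve NS1-induced slow growth of budding yeast raise OD600. Assay medium was yeast nitrogen base with ammonium sulphate and -URA supplement, pH 6.0, with 2% galactose.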
# MARV entry inh: inhibitors of Marburg virus binding or cell entry | Marburg virus pseudotyped entry inhibition, cell reporter; control for the full effect not named in the record; about a third of the inactives were read at about 46 µM | 300,000 compounds, 1.8% hits | Potency, µM (titrated, usually from 37.8 µM), inactives show top-dose activity change, negative = inhibition, most hits filed as inhibitors; active = well fitted inhibition curve with a large enough effect; inconclusive = small, poorly fitted or top-dose-only effect, or effect the other way; inactive = flat fitted curve, though single readings scatter; tested in HEK293 cells; about a fifth of its hits are not listed in these tables; further: on the % scale 0 is the no-effect control and ±100 the full control effect; luciferase read-out
# StopGo reporter: FMDV 2A StopGo reporter, luciferase signal; 410,000 compounds, 1.2% hits; AID 1159524; human cells with a luciferase reporter of 2A StopGo recoding; control for the full effect not named in the record; Potency, µM (series often up to 57.9 µM), for inactives: at the highest dose signal change, negative = less light; active = well fitted falling curve with a large enough effect; inconclusive = small, poorly fitted or top-dose-only effect; inactive = no such curve, though single readings can be large or run the other way; tested in HEK293T cells; further: on the % scale 0 is the no-effect control and ±100 the full control effect; nearly all actives have a fitted effect of over 45% in size; luciferase light after 4 h
# * hit, by the source's call; ? = inconclusive; . = no result given; & = joins results of further samples; [ ] = remark or other dose. Unless noted, the call rests on the fitted dose curve; in most records, active means well fitted rising curve with a large enough effect; inconclusive means small, poorly fitted or top-dose-only effect; inactive means no such curve, though single readings can be large or run the other way. Potency means the concentration at half of the fitted maximal effect.
SMILES,RE007 growth inh,Cruzain Triton,SARS PLpro yeast,Cruzain noTriton,Lassa entry inh,NS1 inh,MARV entry inh,StopGo reporter
COc1cc(NC(=O)COc2ccc(-n3cnnn3)cc2)cc(OC)c1OC,1%,.,2%,.,25%,.,-9%,?
COc1ccc(C2C(C(=O)c3ccccc3)=C(C)Nc3nc4ccccc4n32)c(OC)c1 (stereo not drawn),-5%,-8.2%,-6%,-22%,21%,18%,29%,12%
CCOC(=O)c1sc(SC)nc1N,9%,.,-2%,.,7%[46.1 µM],.,9%&9%[46.1 µM],8%
CC(=O)c1cccc(NC(=O)N2CCCC2C(=O)NC2CCCCC2)c1 (stereo not drawn),-10%,4.9%,5%,4%,2%,-2%,4%[46.1 µM],7%
CCOC(=O)c1cc2sc(C)cc2n1CCCN1C(=O)c2ccccc2C1=O,-3%,-9.8%,3%,2%,11%,7%,-16%,?
COC(=O)c1ccccc1NC(=O)COC(=O)Cc1ccc(S(=O)(=O)N2CCOCC2)s1,14%,.,.,.,1%,.,9%,-20%
CCc1cccc(NC(=O)Cn2c(=O)n(CC(=O)NCCc3ccccc3)c(=O)c3ccccc32)c1,.,6.6%,.,-7%,?,.,12%[46.1 µM],-25%
O=C(NCCC1=CCCCC1)c1cc(S(=O)(=O)N2CCOCC2)ccc1F,2%,.,-1%,.,5%,.,-12%[46.1 µM],-3%
CCN(Cc1ccccc1)C(=O)Cn1c(=O)n(CCC(=O)N2CCCCC2)c(=O)c2sccc21,-3%,.,11%,.,-11%[46.1 µM],9%,4%[46.1 µM],15%
CN(CCCNC(=O)CCC(=O)N1CCOc2ccccc21)Cc1ccccc1,-6%,.,5%,.,.,6%,.,-20%
O=c1nc(-c2ccccc2)c(-c2ccccc2)n[nH]1,-7%,.,-1%,.,-6%[46.1 µM],-5%,?,-4%
CC(=O)Nc1cc2ccccc2oc1=O,5%,-8.5%,-4%,-19%,0%,.,1%&1%[46.1 µM],19%
COc1ccc(CNS(=O)(=O)c2ccc(F)c(C(=O)Nc3c(C)cc(C)cc3C)c2)cc1,.,1.2%,.,15%,25%[46.1 µM],.,.,-25%
CCn1cc(Br)c(-c2nc3ccccc3c(=O)n2N)n1,1%,2.4%,.,2%,21%[14.3 µM],-20%,15%,67%[activator]
CN1C(=O)C(Cc2c[nH]c3ccccc23)C(=O)N(C)C1=O,.,-5.1%,-8%,-10%,.,-37%,0%,.
CCOc1ccc(-c2nnn(CC(=O)NCc3ccc(OC)cc3)n2)cc1OCC,-16%,0.5%,6%,24%,?,-2%,?,.
Cc1cc(=O)[nH]c(N/N=C/c2sccc2C)n1,8%,-7.3%,-7%,-12%,7%,8%,22%,23%
COc1ccc(-n2c(=S)[nH]c3cc(C(=O)NCc4ccccc4)ccc3c2=O)c(OC)c1,-1%,.,1%,.,.,17%,-18%[46.1 µM],-5%
CC1Cc2cc3c(cc2C(c2ccc(N)cc2)=NN1)OCO3 (stereo not drawn),.,-3.7%,.,-13%,.,?,?,.
COc1ccc(NC(=O)CSc2ccc(NC(C)=O)cc2)cc1S(=O)(=O)N1CCOCC1,-6%,.,1%,.,?,.,19%[46.1 µM],-12%
Cc1nn(CC(=O)NCc2ccc(F)cc2)c2ccccc12,.,-1.7%,.,-11%,0%[46.1 µM],.,-8%[46.1 µM],15%
O=S(=O)(c1cccc(C(F)(F)F)c1)n1c(/C=C/c2ccccc2)nc2ccccc21,.,-8.3%,.,?,?,.,.,-70%
O=C(NCCc1ccccc1)c1ccc2c(c1)N(Cc1ccccc1)C(=O)CS2=O (stereo not drawn),-14%,2.7%,-2%,0%,.,13%,4%,1%
COc1cccc(/C=N/n2nnnc2N)c1O,-12%,.,0%,.,25%,-7%,3%[46.1 µM],28%
CC(=O)Nc1nc(SCC(=O)Nc2nnc(C)s2)[nH]c(=O)c1NC(=O)c1cccs1,3%,.,-1%,.,3%,.,5%[46.1 µM],-10%
CC1(C)CC(=O)c2cc(C(=O)Nn3cnnc3)c(=O)n(-c3ccccc3)c2C1,2%,2.0%,6%,0%,5%,-1%,14%,7%
CCOC(=O)c1cc(-c2ccccc2)nn1CCC#N,12%,.,3%,.,-1%[46.1 µM],.,11%[46.1 µM],2%
COC(=O)Cn1c2ccc(Cl)cc2c2nc(C)sc21,15%,.,-2%,.,0%,1%,0%[46.1 µM],-6%
COc1ccc(-c2cc(C(F)(F)F)nc(N3CCOCC3)n2)cc1OC,9%,-6.9%,-2%,?,-7%,-34%,-27%,0%
CCc1nnc(NS(=O)(=O)c2ccc(Nc3ccc4nonc4c3[N+](=O)[O-])cc2)s1,-21%,.,19%,.,2%,8%,0%[46.1 µM],-16%
O=C(CC(CC(=O)c1ccccc1)c1ccncc1)c1ccccc1,1%,.,.,.,2%[46.1 µM],.,0%[46.1 µM],-7%
Cc1c(Cl)cnc(NC(=O)COC(=O)/C=C/c2ccco2)c1Cl,2%,.,11%,.,2%,.,11%,-9%
COc1ccccc1CNC(=O)c1ccc(-c2ccccc2C(F)(F)F)o1,-19%,-14%,-4%,-3%,?,-3%,-25%,-4%
O=Cc1cn(CC(=O)N2CCCCCC2)c2ccccc12,-5%,.,-2%,.,.,1%,.,-21%
COc1ccc(OCC(=O)N2CCN(Cc3c[nH]c4ccccc34)CC2)cc1,6%,6.9%,-2%,-6%,?,-3%,-1%,6%
CSc1ccccc1NC(=O)CN(C)Cc1ccc(Br)cc1,-11%,-4.0%,5%,0%,-23%,-19%,1%,?
CC(C)c1ccc(OCC(=O)N2CCN(C)CC2)c(Br)c1,8%,-2.2%,-5%,9%,-38%,-6%,2%,.
CCC1=C(OC(=O)N(CC)CC)N2C(=O)OC(=NCCc3c[nH]c4ccccc34)[C@]2(Cc2ccccc2)[C@H]2C1=CC[C@H]1C(=O)NC(=O)[C@H]12,-9%,-2.8%,2%,?,.,-6%,.,-29%
CCOc1ccc2c(c1)c(=O)c(S(=O)(=O)c1ccc(Cl)cc1)cn2Cc1ccccc1C,.,-3.3%,.,?,?,.,?,-8%
CSc1ccccc1C(=O)NCc1cccnc1,14%,.,1%,.,?,4%,-6%[46.1 µM],-10%
Cc1cc(Br)c2c(c1)=C(c1sc(N3CCCCCC3)nc1O)C(=O)N=2,-8%,-4.1%,3%,-25%,?,1%,-2%,39%[activator]
CC(C(=O)NCc1cccs1)n1cccc1 (stereo not drawn),-4%,-0.2%,9%,-5%,5%,-3%,4%,-6%
Fc1cccc(CSc2nc3ncccc3[nH]2)c1,6%,-3.0%,-14%,5%,2%,6%,4%,0%
COc1ccc(N2CCN(CCCNC(=O)C(=O)c3c(C)n(C)c4ccccc34)CC2)cc1,-4%,.,-1%,.,.,3%,.,-3%
CC(=O)OC1C2CCCC1C(N1CCCC1)CC2 (stereo not drawn),-8%&-5%,9.5%&4.2%,11%&-2%,5%&-2%,5%&1%,?,?,-4%&-11%
Cc1nc(SCC(=O)NC(=O)NCc2ccccc2)nc(C)c1C,3%,1.0%,1%,7%,-6%,-10%,22%,-17%
CCC(OC(=O)c1ccco1)C(=O)NCc1ccc(OC)cc1 (stereo not drawn),-19%,.,0%,.,-19%[46.1 µM],-9%,-1%[46.1 µM],2%
COc1ccccc1Nc1nc(N)nc(CSc2nccn2C)n1,4%,.,0%,.,17%,1%,-2%,21%
COCCN1Cc2cccc(C(=O)NCc3ccccn3)c2C1=O,-7%,6.2%,0%,-4%,.,-14%,.,0%
O=C(Cc1ccccc1[N+](=O)[O-])Nc1ccccc1C(=O)N1CCCC1,7%,.,-1%,.,8%[46.1 µM],6%,17%[46.1 µM],4%

# Other structures.
SMILES,RE007 growth inh,Cruzain Triton,SARS PLpro yeast,Cruzain noTriton,Lassa entry inh,NS1 inh,MARV entry inh,StopGo reporter
COc1cccc(C(=O)N/N=C/c2cn[nH]c2-c2ccc(OC)cc2OC)c1,3%,-3.7%,1%,2%,12%,-27%,8%[46.1 µM],-27%
CCCOc1ccc(OCCOCCNCc2ccccc2)cc1,.,-1.4%,4%,-16%,1%,-18%,?,-29%
CCn1c(CN2CCOCC2)nc2cc(NC(=O)c3ccccc3[N+](=O)[O-])ccc21,.,-6.2%,.,-10%,5%[46.1 µM],.,0%[46.1 µM],16%
CCOc1ccccc1NC(=O)CSc1ncnc2c1oc1ccccc12,3%,-2.2%,7%,26%,52%[14.3 µM],-25%,1%,10%
CCN(C(=O)c1cnc2ccc(C)cn2c1=O)c1ccccc1,.,-6.6%,.,-12%,.,.,-8%[46.1 µM],-19%
CN(C)c1ccc(/C=N/NC(=O)c2cc(-c3ccc4c(c3)OCO4)n[nH]2)cc1,2%,.,1%,.,?,-9%,-2%,-25%
COc1ccnc2c1c(=O)n(Cc1ccc(Cl)cc1Cl)c(=O)n2C,-7%,.,-72%,.,.,-105%,.,-10%
CC1CCC(NC(=O)CN(C)S(=O)(=O)c2ccc3c(c2)CCC(=O)N3)CC1 (stereo not drawn),-10%,.,-3%,.,-14%[46.1 µM],0%,2%[46.1 µM],-16%
CCOc1c(C(N)=O)cc([N+](=O)[O-])cc1[N+](=O)[O-],8%,-5.6%,-6%,3%,14%,3%,?,-19%
CCN(CC)C(=O)C1CCN(C(=O)c2oc3ccc(C)cc3c2C)CC1,6%,.,0%,.,0%,-6%,10%,-2%
Cc1cc(C)cc(NS(=O)(=O)c2ccc3c(c2)CCCN3C(=O)C2CCC2)c1,.,-6.8%,.,3%,?,.,.,-16%
Cc1ccccc1NS(=O)(=O)c1cc(S(C)(=O)=O)ccc1Cl,-14%,6.5%,0%,1%,8%,-1%,3%,.
C=CCOC(=O)C(=O)/C=C/c1ccc2c(c1)Cc1ccccc1-2,-6%,.,-2%,.,.,2%,.,11%
CSc1nc2ccc(NC(=O)C3CC(=O)N(Cc4ccco4)C3)cc2s1 (stereo not drawn),-4%,-5.2%,1%,-1%,-12%,-46%,15%,-10%

# Source: PubChem BioAssay
